Assay outcomes: PubChem, National Center for Advancing Translational Sciences (NCATS)
gsp agonist = activates gsp, the McCune-Albright syndrome mutation; AID 624287; Potency, µM (titrated, usually from 76.9 µM), inactives show top-dose activation (cAMP increase), most hits filed as activators; hit rate 0.13% among 340,000; gsp mutant cells, cAMP HTRF, 30 min; control for the full effect not named in the record; active = well fitted activation curve with a large enough effect; inconclusive = small, poorly fitted or top-dose-only effect, or another doubt; inactive = no such curve, though single readings can be large or run the other way; cell line not stated here;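 also: phosphodiesterase inhibitor Ro 20-1724 added with compounds to block cAMP breakdown; potency is read from the fitted curve at half-maximal effect; nearly all actives have a fitted effect of over 60% in size; about a fifth of the inactives were tested at one dose only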
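Cells stably selected in G418 were plated at 2000/well, grown 16-24 hr, then given compounds in DMSO with the PDE inhibitor […] (300 uM solution added) for 30 min at 37C; cAMP was read by HTRF.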
gsp antag = antagonizes gsp, the McCune-Albright syndrome mutation. hit rate 0.4% among 340,000. Potency, µM (doses to about 76.9 µM), for inactives: at the top dose activity change, negative = inhibition, usual class: inhibitors. gsp-mutant cells, cAMP HTRF, 30 min; control for the full effect not named in the record; active = falling curve of any shape with a large fitted effect; inconclusive = falling curve, mostly with a smaller effect; inactive = flat or rising curve; cell line not stated here;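 also: intracellular cAMP measured with PDE inhibitor Ro 20-1724 present during compound exposure; potency is read from the fitted curve at half-maximal effect; % is scaled to controls: 0 for no effect and ±100 for the full control effect; nearly all actives have a fitted effect of over 65% in size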
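Cells in G418 medium, seeded 16-24 h, 37C; buffer exchange to DPBS + 1 mM CaCl2, 0.5 mM MgCl2, 0.05% BSA; cpds in DMSO + […] (300 uM stock), 30 min 37C; HTRF cAMP detection.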
ClpP mod = qHTS Assay for Activators of ClpP; purified B. subtilis ClpP, FRET peptide cleavage, 20 min; ATP-dependent Clp protease proteolytic subunit (Bacillus subtilis (strain 168)), P80244; Potency, µM (series often up to 57.5 µM), for the others: at the highest dose activity change, negative = active; hit rate 1.9% among 340,000; active = well fitted falling curve with a large enough effect; inconclusive = small, poorly fitted or top-dose-only effect; inactive = no such curve, though single readings can be large or run the other way; also: potency is read from the fitted curve at half-maximal effect; the source files actives as falling curves though it sought activators and does not explain the sign; nearly all actives have a fitted effect of over 65% in size; many hits overshoot -100%
Target sequence (P80244 whole entry, looked up): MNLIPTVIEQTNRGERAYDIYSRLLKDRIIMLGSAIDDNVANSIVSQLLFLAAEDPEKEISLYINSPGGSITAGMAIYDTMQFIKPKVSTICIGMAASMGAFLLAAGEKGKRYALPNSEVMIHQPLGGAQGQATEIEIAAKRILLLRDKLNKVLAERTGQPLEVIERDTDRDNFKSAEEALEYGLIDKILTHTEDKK
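FRET quenching reversal measured ClpP activation: 10 microg/mL B. subtilis ClpP at pH 8 with the FRET-FV decapeptide, read at 430 nm after 320 nm excitation. The 20-min minus 0-min signal was scaled between DMSO/no-enzyme wells and ADEP (5.8 microM final).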
TRPV1 PAM = human TRPV1 potentiation | hit rate 0.02% among 320,000 | potentiation, % at 8.33 µM | TRPV1-expressing cells, Fluo-8 calcium influx, capsaicin EC20 potentiation; host cell line not named in the record; control for the full effect not named in the record | Q8NER1 | AID 540277; active means potentiation above 80%; inconclusive means 30% to 80%; inactive means below 30%; also: 0% is about no effect
Target sequence (Q8NER1 whole entry, looked up): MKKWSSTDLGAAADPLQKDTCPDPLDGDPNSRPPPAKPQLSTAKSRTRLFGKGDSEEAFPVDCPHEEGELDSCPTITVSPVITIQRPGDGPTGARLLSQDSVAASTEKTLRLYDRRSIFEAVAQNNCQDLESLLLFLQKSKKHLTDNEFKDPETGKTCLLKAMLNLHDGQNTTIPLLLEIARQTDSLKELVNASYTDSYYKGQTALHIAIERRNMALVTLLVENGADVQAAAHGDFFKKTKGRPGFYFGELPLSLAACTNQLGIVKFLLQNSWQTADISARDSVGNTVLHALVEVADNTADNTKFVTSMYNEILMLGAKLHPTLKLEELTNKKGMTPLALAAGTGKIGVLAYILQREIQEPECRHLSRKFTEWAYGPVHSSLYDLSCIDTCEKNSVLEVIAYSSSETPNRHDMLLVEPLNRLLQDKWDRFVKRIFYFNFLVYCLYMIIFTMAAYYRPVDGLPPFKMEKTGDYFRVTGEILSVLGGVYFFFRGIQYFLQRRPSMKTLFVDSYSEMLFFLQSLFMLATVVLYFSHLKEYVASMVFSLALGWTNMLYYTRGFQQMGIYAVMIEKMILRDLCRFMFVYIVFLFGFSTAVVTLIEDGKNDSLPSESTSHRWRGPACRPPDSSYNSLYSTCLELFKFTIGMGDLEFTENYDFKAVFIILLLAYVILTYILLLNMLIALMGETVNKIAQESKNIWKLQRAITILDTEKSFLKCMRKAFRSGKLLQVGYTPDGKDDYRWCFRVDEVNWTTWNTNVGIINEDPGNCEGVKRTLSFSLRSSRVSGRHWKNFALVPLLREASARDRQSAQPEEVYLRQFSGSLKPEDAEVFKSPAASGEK
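Fluo-8 calcium influx in TRPV1-expressing cells, kinetic read (ex 480/em 520 nm). Compound added and read 3 min for agonist activity, followed by capsaicin at EC20 final and 2 min further read for enhancement.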
Menin-MLL FL inh = inhibitors of human menin-MLL interaction, wild-type MLL peptide; Fluorescence polarization, fluorescein-MLL peptide displacement from menin; FP activity change, % at 61.4 µM; 290,000 tested, under 10 active; inconclusive = falling polarisation curve, or a change in total fluorescence; inactive = total fluorescence flat and polarisation flat or rising; no compound was filed as active; the % refers to the polarisation; negative = inhibition;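 also: % of control where 0% means no effect; inhibitors lower the polarisation; unlabelled MLL peptide was the positive control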
CtBP-E1A inh = inhibitors of CtBP/E1A interaction | AID 651724 | AlphaScreen GST-E1A/His-CtBP binding, 1536-well; hits give low values; control for the full effect not named in the record | activity change, % (test concentration not listed) | hit rate 0.49% among 340,000; in the data active means activity change below about -65%; inconclusive means about -30% to -65%; inactive means above about -30%; also: % is scaled to controls: 0 for no effect and ±100 for the full control effect; compound concentration not given in the record
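GST-E1A and His-tagged CtBP (125 nM each as 5X stock) were preincubated with pin-transferred compound for 2 h at 37 °C in the dark, then glutathione donor and nickel acceptor beads were added for 1 h before AlphaScreen reading.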
Sfp inh = blocks B. subtilis Sfp PPTase activity. AID 1490. Biochemical Sfp PPTase activity, qHTS. Potency, µM, inactives show max response, negative = inhibition, usual class: inhibitors. hit rate 3.5% among 310,000. Q9F4F7; active = well fitted inhibition curve with a large enough effect; inconclusive = small, poorly fitted or top-dose-only effect, or another doubt; inactive = no such curve, though single readings can be large or run the other way;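 also: the enzyme is Sfp with the accession as filed and its product quenches rhodamine fluorescence; potency is read from the fitted curve at half-maximal effect; 0% = enzyme reaction without inhibitor and -100% = no enzyme wells; top concentration of the series not given in the record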
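Compounds were incubated with enzyme (final 15 nM) for 15 min at room temperature before substrate addition started the reaction. Fluorescence at 525 nm excitation, 598 nm emission was recorded immediately and after 30 minutes.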
Active calls of the source: *; ? = inconclusive; / = not tested or not shown; [ ] = dose if it differs, or a comment.

The line under a structure holds: gsp agonist	gsp antag	ClpP mod	TRPV1 PAM	Menin-MLL FL inh	CtBP-E1A inh	Sfp inh
O=C(Nc1ccc(F)cc1)c1ccc(S(=O)(=O)NCc2cccnc2)cc1
  -1%	-1%	/	?	-2.6	4	4%
CCOC(=O)c1nn(-c2cccc(Cl)c2)c(C)c1C(C)=O
  -43%	-6%	0.0%	-7	8.1	7	23%
COC(=O)COc1ccc(S(=O)(=O)N2CCCCCC2)cc1C
  22%	-2%	/	12	-1.7	6	20%
N#C/C(C(=O)N1CCCCC1)=C1/N=C(N)c2ccccc21
  17%[15.4 µM]	-18%	-0.6%	-19	3.3	0	25%
COc1ccccc1-c1ccccc1C1=CC(=O)CC(C)(C)C1=O
  -56%[inhibitor]	/	0.8%	/	/	0	/
COc1ccc(CC(=O)Nc2ccc(S(=O)(=O)Nc3onc(C)c3C)cc2)cc1OC
  -7%	2%	/	5	-0.3	-7	9%
NN(Cc1ccccc1)C(=S)Nc1ccc(Cl)c(Cl)c1
  -66%[inhibitor]	-26%	-0.1%	-12	3.8	15	13%
CCOC(=O)c1cnn(CCOC(=O)C(C)(C)C)c1NC(=O)C(C)(C)C
  9%	8%	-0.2%	-5	3.7	9	18%
O=C(Nc1cc(C(=O)N2CCCC2)ccc1N1CCCC1)C1CC1
  4%	-17%	0.6%	2	0.3	5	11%
COCCCNC(=O)Cn1c(=O)n(CCCCCC(=O)Nc2ccccc2)c(=O)c2sccc21
  11%	-6%	-1.3%	-6	2.1	-9	1%
CCCCCCC(=O)N(O)C1CC(=O)N(c2ccc(C)cc2)C1=O (centres undefined)
  -6%	7%	-2.7%	-4	2.2	-14	20µM*
Cc1cc(N2CCN(C(=O)c3ccco3)CC2)n2nc(-c3cccc(Cl)c3)cc2n1
  -1%	?	35µM*	0	0.2	-11	-12%
CC(C)NC(=O)CC(c1ccccc1)c1cc(Br)ccc1O (centres undefined)
  -4%	0%	-1.1%	8	0.1	-28	100µM*
CC(C)CCCCCCCCCCCCC(=O)NCC(=O)NC1C(C)OC(Nc2ncnc3nc[nH]c23)C(O)C1O (centres undefined)
  5%	8%	4.0%	/	/	-3	/
CCOc1cc(-n2nc(C)c(C#N)c2N)nc(SC)n1
  /	/	/	6	5.6	/	-4%

Following part:
The line under a structure holds: gsp agonist	gsp antag	ClpP mod	TRPV1 PAM	Menin-MLL FL inh	CtBP-E1A inh	Sfp inh
CC1=CC2=NC(=O)/C(=C\c3ccc(OC(=O)c4ccco4)cc3)C(=N)N2O1
  -16%	14%	/	8	?	6	-12%
COc1ccccc1NC(=O)C(=O)NCC1COc2ccccc2O1 (centres undefined)
  -32%[inhibitor]	0%	-1.2%	2	0.9	13	10%
CC1CCN(C(=O)COC(=O)[C@H](C)NS(=O)(=O)/C=C/c2ccccc2)CC1
  -31%[inhibitor]	-15%	-12%	-15	1.9	6	18%
Cc1ccc(C(C)(C)C)cc1S(=O)(=O)NC(=O)c1ccccc1
  9%[15.4 µM]	-6%	/	11	0.7	2	25%
Cc1c(C(=O)N2CC(C)OC(C)C2)sc2nc(-c3ccc(F)cc3)cn12 (centres undefined)
  -59%[inhibitor]	4%	-2.3%	/	4.7	-13	-5%
CSCC[C@H](NC(=O)C1CCCC1)c1nc2ccccc2[nH]1
  -28%[15.4 µM]	12%	/	2	-0.8	-20	15%
O=C1CC[C@@H](C(=O)N2CSC[C@@H]2C(=O)Nc2cccc(C(F)(F)F)c2)N1
  -15%	/	-0.4%	/	/	1	/
COc1cccc(C(=O)Nc2nnc(-c3ccccc3)s2)c1OC
  ?	-9%	-17%	-4	-6.9	-3	4%
COc1ccc(Br)cc1CNC(=O)C1CCCN(S(C)(=O)=O)C1 (centres undefined)
  -55%[inhibitor]	-1%	-0.7%	-9	3.0	21	2%
CN(C)S(=O)(=O)c1ccc(/C(O)=C2/C(=O)C(=O)N(CCCN3CCOCC3)C2c2ccncc2)cc1 (centres undefined)
  -21%[15.4 µM]	2%	/	/	/	7	/
O=C(NCc1ccccc1Cl)c1cccc(C(F)(F)F)c1
  2%[15.4 µM]	-4%	-0.9%	-6	-0.9	6	-3%
Cc1ccc(-c2noc(CNS(=O)(=O)c3ccccc3)n2)cc1
  2%	5%	-1.1%	6	/	2	4%
CCOC(=O)N1CCN(C(=O)c2cc(C)c3c(C)nn(-c4ccccc4)c3n2)CC1
  -7%	-4%	-8.4%	1	10	13	23%
O=C1CC(N2CCOCC2)C(=O)N1Cc1ccc(N2CCCC2=O)cc1 (centres undefined)
  -81%[inhibitor]	10%	0.2%	-3	0.4	14	17%
CCN(CC(=O)Nc1cc(Cl)ccc1-n1cncn1)Cc1nc2ccccc2c(=O)[nH]1
  -3%	-5%	-3.6%	6	/	-5	/

More results follow:
smiles	gsp agonist	gsp antag	ClpP mod	TRPV1 PAM	Menin-MLL FL inh	CtBP-E1A inh	Sfp inh
O=C1c2cccc3cccc(c23)C(=O)N1Cc1cccnc1	9%[15.4 µM]	0%	-0.4%	-4	-0.2	11	9%
CCN(CC)S(=O)(=O)c1cccc(NC(=O)c2cc(=O)[nH]c3ccccc23)c1	?	6%	-13%	9	3.0	-12	-3%
COc1ccccc1NC(=O)c1cc2cc(Br)ccc2oc1=N	7%	0%	-1.3%	-3	18	-23	?
CC1=CC(C)(C)Nc2ccc(OC(=O)CN3C(=O)C4CCCCC4C3=O)cc21 (centres undefined)	-1%[15.4 µM]	-6%	-0.1%	11	6.5	-2	7%
CCCCc1ccc(NC(=O)N[C@@H](CC(C)C)C(=O)O)cc1	-24%	4%	-0.6%	-8	0.7	-8	-24%
CCN(CC)c1ccc(/C=C2\SC(=O)N(C(C)C)C2=O)o1	-2%[15.4 µM]	0%	-2.2%	-7	?	-1	7.1µM*
Cc1ccc(S(=O)(=O)N2CCN(C(=O)c3ccc(-n4cncn4)c([N+](=O)[O-])c3)CC2)c(C)c1	10%	/	-1.9%	/	/	0	/
O=C(NCCN1CCCCC1)Nc1ccccc1	0%	16%	-0.8%	0	?	3	21%
COc1ccc(C(=O)C[n+]2ccc3c(c2)nc(-c2cc(OC)c(OC)cc2OC)n3C)cc1	-29%	14%	0.4%	4	1.2	9	17%
COc1ccc(NS(=O)(=O)c2ccc(NS(=O)(=O)c3ccc(C)cc3)cc2)nn1	12%	-4%[15.4 µM]	1.1%	5	-0.2	-5	21%
CC12CCC(C/C1=N/OC(=O)c1cccc([N+](=O)[O-])c1)C2(C)C (centres undefined)	-3%	-12%	1.3%	-14	0.0	-7	-1%
Cc1ccc(F)c(NC(=O)c2ccc(Cn3cc(Cl)cn3)cc2)c1	-23%	-23%	-0.1%	-22	4.5	2	-12%

The list goes on.
smiles	gsp agonist	gsp antag	ClpP mod	TRPV1 PAM	Menin-MLL FL inh	CtBP-E1A inh	Sfp inh
COC(=O)c1ccc(COc2ccc(/C=N/N3CCN(C)CC3)cc2)cc1	9%[15.4 µM]	5%	/	1	-1.3	-2	11%
O=S(=O)(c1cccs1)N1CCN(CCOc2ccccc2)CC1	17%[15.4 µM]	6%	/	-12	/	1	/
CCOC(=O)COc1nc(Nc2ccccc2C)nc(N(C)C)n1	-2%	2%	-0.3%	-14	1.0	7	10%
CC(NC(=O)CN1C(=O)NC2(CCCCCCC2)C1=O)c1ccccc1 (centres undefined)	9%	8%	-1.1%	/	/	5	/
COc1ccc(C)cc1NC(=O)c1ccc(CN2CCN(c3ccccc3)CC2)cc1	-53%[inhibitor]	-13%	0.9%	10	4.6	-12	-12%
CCOC(=O)C1=C(C)NC(=O)CC1c1cc2c(cc1[N+](=O)[O-])OCO2 (centres undefined)	2%	0%	/	-2	?	-1	?
CC(C)(C)N(Cc1ccccc1)C(=O)COC(=O)CN1C(=O)C2CC=CCC2C1=O (centres undefined)	29%	3%	-1.0%	10	/	4	13%
CCOc1ccc(C(=O)Nc2nnn(CC)n2)cc1	-29%	15%	-0.5%	-1	2.5	6	0%
c1ccc2oc(-c3ccc(Nc4nc(N5CCCCC5)nc(N5CCOCC5)n4)cc3)nc2c1	/	/	/	11	-3.0	/	0%
Cc1noc(/C=C/N(C)C)c1S(=O)(=O)N(C)CC(=O)NC1CCCCC1	?	-11%	-11%	-10	7.5	5	-12%
CC(c1ccccc1)N1CCc2[nH]c(=S)[nH]c(=O)c2C1 (centres undefined)	6%	2%	/	20	3.1	9	?
COC(=O)c1ccc(/C=N/Nc2nc(-c3ccccc3)cs2)cc1	10%	-1%	-0.6%	8	4.4	-4	-13%

Of the compounds above, three contain a nitro group on carbon.
smiles	gsp agonist	gsp antag	ClpP mod	TRPV1 PAM	Menin-MLL FL inh	CtBP-E1A inh	Sfp inh
Cc1ccc(S(=O)(=O)N2CCN(C(=O)c3ccc(-n4cncn4)c([N+](=O)[O-])c3)CC2)c(C)c1	10%	/	-1.9%	/	/	0	/
CC12CCC(C/C1=N/OC(=O)c1cccc([N+](=O)[O-])c1)C2(C)C (centres undefined)	-3%	-12%	1.3%	-14	0.0	-7	-1%
CCOC(=O)C1=C(C)NC(=O)CC1c1cc2c(cc1[N+](=O)[O-])OCO2 (centres undefined)	2%	0%	/	-2	?	-1	?

More records:
smiles	gsp agonist	gsp antag	ClpP mod	TRPV1 PAM	Menin-MLL FL inh	CtBP-E1A inh	Sfp inh
Cc1ccc(-c2nc(Cl)nc3ccccc23)cc1	24%	2%	/	-14	-3.8	32	-9%
O=S(=O)(Nn1cnnc1)c1ccc2ccccc2c1	?	0%	/	1	-0.4	-3	9%
COc1cccc(NC(=O)CNS(=O)(=O)c2ccc3nc(C)sc3c2)c1	-2%	2%	1.0%	10	1.3	-2	10%
CN(Cc1cc([N+](=O)[O-])ccc1Cl)C(=O)C[n+]1ccccc1	-27%	9%	/	0	7.9	4	2%
